# VACV mCherry inh: inhibitors of vaccinia virus infection (mCherry reporter signal). Vaccinia virus mCherry reporter infection, fluorescence; about a quarter of the inactives have no number. Potency, µM (top dose mostly 36.5 µM), for inactives: at the top dose activity change, negative = inhibition, usual class: inhibitors. hit rate 0.63% among 310,000. AID 720579; active = well fitted inhibition curve with a large enough effect; inconclusive = small, poorly fitted or top-dose-only effect; inactive = no such curve, though single readings can be large or run the other way; tested in A549 cells; further: nearly all actives have a fitted effect of over 35% in size; inactives centre near -10
# VACV Venus inh: inhibitors of vaccinia virus (Venus reporter); Vaccinia virus Venus reporter expression, fluorescence; Potency, µM (top dose mostly 36.5 µM), inactives show at the highest dose activity change, negative = inhibition, actives largely listed as inhibitors; hit rate 0.46% among 330,000; active means well fitted inhibition curve with a large enough effect; inconclusive means small, poorly fitted or top-dose-only effect; inactive means no such curve, though single readings can be large or run the other way; tested in A549 cells; further: nearly all actives have a fitted effect of over 30% in size; inactives centre near -10
# Active calls of the source: *; i = inactive; u = inconclusive; x = not tested or not shown; & = joins results of further samples; [ ] = another dose, or the depositor's remark. On the % scale 0 is the no-effect control and ±100 the full control effect; potency means the concentration at half of the fitted maximal effect. Not a hit list. About 0.86% of those tested had a hit in this group.
SMILES,VACV mCherry inh,VACV Venus inh
NC(=O)c1ccc(NC(=O)c2ccc3c(c2)OCO3)cc1,i,-15.7%
C=CCn1c(-c2cccc(S(=O)(=O)N3CCOCC3)c2)n[nH]c1=S,i,-4.6%
CC(C)(C)CN1C(=O)C(=O)NC[C@H]1Cc1cccc2ccccc12,i,5.5%
CCN(CC)CCNC(=O)Cn1cnc2sc(C)c(S(=O)(=O)N3CCN(c4ccccc4OC)CC3)c2c1=O,-1.0%&0.0%,0.3%&-9.0%
CC(C)(C)OC(=O)N1CCC[C@@H]1C(=O)N1CCC(C(=O)O)CC1,x,-12.1%
CC[C@@H](C)[C@@H](CO[C@@H](Cc1ccccc1)C(=O)N[C@@H](CCS(C)(=O)=O)C(=O)OC(C)C)NC[C@@H](N)CS,-5.0%,-16.8%
COc1cccc(S(=O)(=O)N(C)C[C@H]2OCc3cnnn3CCCC(=O)N([C@@H](C)CO)C[C@H]2C)c1,-0.4%,-9.6%
O=C(c1ccccc1Oc1ccccc1)N1CCN(c2ccc(F)cc2)CC1,-17.5%,-23.1%
CCNC(=O)C1(C)CCN(C(=O)c2cccc(OC(F)(F)F)c2)C1 (stereo not drawn),39.1%[activator],-6.7%
Cc1ccc(C)c(N2CCN(C(=O)C(C)n3c(C)c4cnn(-c5ccccc5)c(=O)c4c3C)CC2)c1 (stereo not drawn),-20.5%,-7.0%
COCCCNC(=O)CCn1c(=O)c2ccccc2n(CC(=O)Nc2cc(Cl)ccc2C)c1=O,x,-11.7%
CCOc1ccc(/C=C/c2c([N+](=O)[O-])c(=O)n(C)c(=O)n2C)cc1,-9.6%,-12.0%
Cc1cn([C@H]2C[C@H](O)[C@@H](/C=C/C(=O)NCc3cccc4ccccc34)O2)c(=O)[nH]c1=O,i,0.1%
O=C1C(Cl)=C(N2CCN(c3ccccc3[N+](=O)[O-])CC2)C(=O)c2ccccc21,u,-2.2%
Cc1cc(C)nc(SCc2ccc(C(=O)N/N=C/c3cccc(O)c3O)cc2)n1,8.91µM*,u
CCn1nc(NC(=O)C2CCCO2)c2cc3cccc(C)c3nc21 (stereo not drawn),-4.4%,-10.9%
CCOC(=O)C1CCN(C(=O)CCn2c(=O)oc3ccccc32)CC1,-17.1%,-8.2%
CC(=O)Nc1ccc(C(=O)CSc2nnnn2C(C)C)cc1,-18.2%,-11.9%
O=C(NCc1cccnc1)C12CC3CC(CC(C3)C1)C2,i,-8.9%
Cc1ccccc1Cn1nc(C)c(NC(=O)c2sc3ccccc3c2Cl)c1C,-24.5%,u
CCCCn1c(N)c(N(Cc2ccccc2OC)C(=O)c2cc(CC)c(C)s2)c(=O)[nH]c1=O,-9.9%,-5.2%
COC(=O)COc1ccc(/C=N/NC(=O)CN(c2ccccc2OC)S(=O)(=O)c2ccccc2)cc1,-19.3%,1.9%
O=C(Oc1ccc(Cl)c2cccnc12)c1cccc([N+](=O)[O-])c1,u,u
CSc1ccc(C(=O)C2CCCN(C(=O)c3cc4cc(F)ccc4[nH]3)C2)cc1 (stereo not drawn),i,-8.3%
Cc1cc(C)c2c(c1)-c1cc(C)nn1C(c1cccnc1)N2 (stereo not drawn),u,-20.0%
COc1ccc(-c2cn3c(n2)sc2cc(C(=O)NCc4cccc(F)c4)ccc23)cc1,-28.0%,-12.1%
COc1ccc(NC(=O)Cn2nnc(C(=O)NCc3ccccc3)c2N)cc1Cl,x,-6.8%
Cc1cccc(NC(=O)CSc2nc(C)cc(C)c2C(=O)Nc2ccc(Cl)cc2)c1,-6.4%,-28.5%
CCN(CC)S(=O)(=O)c1ccc2[nH]c(=O)cc(C(=O)NCc3ccccc3)c2c1,i,2.4%
Cc1ccc(N2C(=O)N(Cc3cc(=O)n4ccccc4n3)c3ccccc3S2(=O)=O)cc1Cl,-21.8%,-10.2%

# 3 structures out of the list, ordered by heavy-atom count, smallest number first:
SMILES,VACV mCherry inh,VACV Venus inh
CCOC(=O)C1CCN(C(=O)CCn2c(=O)oc3ccccc32)CC1,-17.1%,-8.2%
CSc1ccc(C(=O)C2CCCN(C(=O)c3cc4cc(F)ccc4[nH]3)C2)cc1 (stereo not drawn),i,-8.3%
CCN(CC)S(=O)(=O)c1ccc2[nH]c(=O)cc(C(=O)NCc3ccccc3)c2c1,i,2.4%

# The list goes on:
SMILES,VACV mCherry inh,VACV Venus inh
COc1ccc(-c2nnc(SCC(=O)NC3CCCCC3)n2N)cc1,-1.0%,-14.8%
CC1CCN(c2ccc(C(=O)Nc3nnc(C4CC4)s3)cc2[N+](=O)[O-])CC1,-12.3%,-24.1%
CCCNC(=O)CN(Cc1ccco1)S(=O)(=O)c1ccc(OCC)cc1,i,-10.6%
CCc1nn(CC(=O)NCc2ccc(OC)cc2OC)c(=O)c2cc3c(OC)cccc3n12,0.7%,-2.7%
Cc1cc(C)nc(/N=C2\NC(=O)CC(C(=O)O)N2c2ccc(Oc3ccccc3)cc2)n1 (stereo not drawn),-6.4%,-1.4%
O=C(N/N=C/c1cccc(OC(=O)c2ccccc2Cl)c1)c1cccnc1,i,-20.3%
CCCCn1c(N)c(N(CCC(C)C)C(=O)COC(=O)c2ccco2)c(=O)[nH]c1=O,-8.8%,-12.3%
CC(=O)Nc1ccc2nc(-c3cccnc3)[nH]c2c1,-9.9%,-0.1%
COc1ccc(-c2nn3c(-c4cc(C)[nH]n4)nnc3s2)cc1,-26.7%,-18.5%
O=C(CCN1C(=O)c2ccccc2C1=O)NC(=S)Nc1ccccc1,-8.3%,6.7%
CCCC1CCC(c2ccc(C(N)=O)cc2)CC1 (stereo not drawn),x,5.0%
COc1ccc2c(c1)c1nc3ccccc3nc1n2Cc1ccc(OC)c(OC)c1,i,-7.3%
COc1cccc(NC(=O)C(=O)NCc2ccncc2)c1,i,-8.4%
Cc1cc(C)cc(N(C)S(=O)(=O)c2nnc(NC(=O)COc3ccc(Cl)cc3)s2)c1,-3.1%,-2.5%
COc1ccc(N2CCN(c3oc(COc4ccc(Cl)cc4Cl)nc3C#N)CC2)cc1,x,-14.2%
COc1ccc(Cl)cc1NC(=O)CN(C)C(=O)Cc1n[nH]c(=O)c2ccccc12,-20.7%,-7.4%
CCOC(=O)CNC(=O)CSc1nc2ncc(Br)cc2[nH]1,x,-5.4%
O=[N+]([O-])c1ccc(-c2cnc[nH]2)cc1,-0.9%,-17.1%
CC(C)CC(NC(=O)OC(C)(C)C)c1cn([C@@H](Cc2cc3ccccc3[nH]2)C(=O)N2CCN(C(=O)OC(C)(C)C)CC2)nn1 (stereo partly drawn),-15.4%,u
Cc1ccc(NC(=O)CCn2nc(C)c3c(C)n(-c4ccccc4)nc3c2=O)cc1Cl,-22.0%,-6.0%
O=C(O)c1c(-c2ccc(Cl)cc2)cn2ccccc12,-17.7%,-0.8%
CCNC(=O)C1(C)CCN(C(=O)c2ccc3ccccc3c2)C1 (stereo not drawn),11.3%,-10.4%
Cc1ccc(C(=O)NCc2ccccc2)cc1Br,-9.1%,0.3%
COc1ccccc1C(c1nnnn1C(C)(C)C)N1CCCCCC1 (stereo not drawn),-17.9%,2.3%
CC(=O)Oc1ccc(C(=O)Nn2cnnc2)cc1,-10.3%,-0.2%
Cc1ccc2c(c1)C1(SC(C)C(=O)N1c1ccc(Cl)cc1)C(=O)N2 (stereo not drawn),4.6%,-18.0%
C[C@H](CO)N1C[C@H](C)[C@@H](CN(C)C(=O)Nc2ccc(C(F)(F)F)cc2)Oc2c(NS(=O)(=O)c3cccs3)cccc2C1=O,-15.9%,-11.5%
Cc1sc2nc(SCc3ccc(C(=O)O)cc3)n(Cc3ccco3)c(=O)c2c1C,-5.7%,-3.6%
Cc1ccc(N2C(=O)C(CC(=O)Nc3ccc(F)cc3)N(Cc3ccc4c(c3)OCO4)C2=O)cc1 (stereo not drawn),-13.1%,-5.2%
COc1ccc(-c2cc(=NC(CC(C)C)C(=O)O)c3cc(C)ccc3o2)cc1 (stereo not drawn),-26.4%,-21.6%
O=C(CSc1nccc(-c2cccs2)n1)Nc1cccc(Cl)c1Cl,-9.7%,-17.3%
COc1ccccc1NC(=O)c1cc(S(=O)(=O)N2CCOCC2)ccc1Cl,-5.2%,-14.5%
COc1cc(CNCc2ccncc2)ccc1OCC(N)=O,i,-18.7%
Cc1csc[n+]1CC(=O)c1ccccc1,i,-7.4%
CC(C)NC(=O)CCSc1nc(-c2ccc3c(c2)OCO3)cc(C(F)(F)F)n1,-10.2%,-11.0%
O=C(CCCn1c(=O)[nH]c2cc(Cl)ccc2c1=O)NCCCN1CCCC1,x,-8.1%
CC(=O)c1c(COC(=O)c2ccco2)nc2ccccc2[n+]1[O-],x,-13.5%
COC/C=C/C1=CC2=CC(=O)C(C)(OC(=O)c3cnc4ccccc4n3)C(=O)C2=CN1C(CO)CO (stereo not drawn),-12.7%,1.8%
CC(C)(Cc1ccc(O)cc1)NC(=O)SCc1ccccc1,-9.2%,-14.3%
Cc1cccc(C(=O)NCC(=O)Nc2ccncc2)c1,-11.8%,-2.6%
Cc1ccc2nc(N3CCN(c4cccc(Cl)c4)CC3)c(-n3nc(C)cc3C)nc2c1,-18.9%,-4.3%
CCOC(=O)c1sc(NC(=O)C2CC(=O)N(c3ccc(OCC)cc3)C2)nc1C (stereo not drawn),0.4%,-14.9%
NC(=O)CC(NC(=O)c1cccc(Br)c1)c1ccc(N2CCN(c3ccc(F)cc3)CC2)c([N+](=O)[O-])c1 (stereo not drawn),i,-21.3%
COc1ccc([C@H]2CC(=O)C=C(c3ccc4cc[nH]c4c3)C2)cc1,u,-4.8%
C[N+]1(CCn2ccc3ccccc32)CCCCC1,i,-8.7%
Cc1c[n+]([O-])ccc1[N+](=O)[O-],u,-20.0%
CCOc1ccc(N2C(=O)C3C(c4ccccc4F)NN(C(=O)c4ccc(C)cc4)C3C2=O)cc1 (stereo not drawn),1.6%,0.7%
COc1ccc(NC(=O)CN2C(=O)COc3ccc(S(=O)(=O)N4CCOCC4)cc32)cc1Cl,-11.8%&-5.1%,-5.6%&-8.6%
COc1cccc(NC(=O)Cn2c(=O)n(CC(=O)NCCc3ccccc3)c(=O)c3sccc32)c1,-9.6%,-3.6%
COc1ccc(-n2c3nc4ccccc4nc3c3c(=N)oc(C)nc32)cc1,i,-14.4%
Cc1noc(C)c1C(=O)N1CCC(C(=O)c2ccccc2)CC1,-12.3%,-4.1%
Cc1cccc(N2CCN(C(C(=O)NCc3ccccc3)c3ccc(C(F)(F)F)cc3)CC2)c1C (stereo not drawn),u,-7.7%
CC1=C(C(=O)OCc2ccccc2)C(c2ccccc2OC(F)F)NC(=O)N1 (stereo not drawn),u,-21.3%
Cc1occc1C(=O)NNC1=CC(=O)CC(C)(C)C1,-8.0%,3.0%
CNc1nc(-c2ccccc2C(F)(F)F)nc2ccccc12,i,-1.1%
N#CCCN(C(=O)COC(=O)c1n[nH]c2ccccc12)c1ccccc1,i,-6.8%

# By substructure, the compounds so far containing an NH in an aromatic ring.
SMILES,VACV mCherry inh,VACV Venus inh
C=CCn1c(-c2cccc(S(=O)(=O)N3CCOCC3)c2)n[nH]c1=S,i,-4.6%
Cc1cn([C@H]2C[C@H](O)[C@@H](/C=C/C(=O)NCc3cccc4ccccc34)O2)c(=O)[nH]c1=O,i,0.1%
CCCCn1c(N)c(N(Cc2ccccc2OC)C(=O)c2cc(CC)c(C)s2)c(=O)[nH]c1=O,-9.9%,-5.2%
CSc1ccc(C(=O)C2CCCN(C(=O)c3cc4cc(F)ccc4[nH]3)C2)cc1 (stereo not drawn),i,-8.3%
CCN(CC)S(=O)(=O)c1ccc2[nH]c(=O)cc(C(=O)NCc3ccccc3)c2c1,i,2.4%
CCCCn1c(N)c(N(CCC(C)C)C(=O)COC(=O)c2ccco2)c(=O)[nH]c1=O,-8.8%,-12.3%
CC(=O)Nc1ccc2nc(-c3cccnc3)[nH]c2c1,-9.9%,-0.1%
COc1ccc(-c2nn3c(-c4cc(C)[nH]n4)nnc3s2)cc1,-26.7%,-18.5%
COc1ccc(Cl)cc1NC(=O)CN(C)C(=O)Cc1n[nH]c(=O)c2ccccc12,-20.7%,-7.4%
CCOC(=O)CNC(=O)CSc1nc2ncc(Br)cc2[nH]1,x,-5.4%
O=[N+]([O-])c1ccc(-c2cnc[nH]2)cc1,-0.9%,-17.1%
CC(C)CC(NC(=O)OC(C)(C)C)c1cn([C@@H](Cc2cc3ccccc3[nH]2)C(=O)N2CCN(C(=O)OC(C)(C)C)CC2)nn1 (stereo partly drawn),-15.4%,u
O=C(CCCn1c(=O)[nH]c2cc(Cl)ccc2c1=O)NCCCN1CCCC1,x,-8.1%
COc1ccc([C@H]2CC(=O)C=C(c3ccc4cc[nH]c4c3)C2)cc1,u,-4.8%
N#CCCN(C(=O)COC(=O)c1n[nH]c2ccccc12)c1ccccc1,i,-6.8%

# Source: PubChem (National Center for Advancing Translational Sciences (NCATS))
